Assay outcomes: PubChem BioAssay, National Center for Advancing Translational Sciences (NCATS)
EPAC2 ant val = validation of human EPAC2 antagonists; Q8WZA2; EPAC2 Rap1B BODIPY-GDP exchange, fluorescence; Potency, µM (highest dose often 112 µM), inactives show top-dose activity, negative = inhibition, actives largely listed as inhibitors; 16,000 tested, 1.7% active; AID 1645886; active = well fitted inhibition curve with a large enough effect; inconclusive = small, poorly fitted or top-dose-only effect; inactive = no such curve, though single readings can be large or run the other way;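 note: 100% = activation by cAMP agonist control; nearly all actives have a fitted effect of over 40% in size; the record reuses the description of the EPAC1 agonist screen; inactives centre near -10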
Target sequence (Q8WZA2 whole entry, looked up): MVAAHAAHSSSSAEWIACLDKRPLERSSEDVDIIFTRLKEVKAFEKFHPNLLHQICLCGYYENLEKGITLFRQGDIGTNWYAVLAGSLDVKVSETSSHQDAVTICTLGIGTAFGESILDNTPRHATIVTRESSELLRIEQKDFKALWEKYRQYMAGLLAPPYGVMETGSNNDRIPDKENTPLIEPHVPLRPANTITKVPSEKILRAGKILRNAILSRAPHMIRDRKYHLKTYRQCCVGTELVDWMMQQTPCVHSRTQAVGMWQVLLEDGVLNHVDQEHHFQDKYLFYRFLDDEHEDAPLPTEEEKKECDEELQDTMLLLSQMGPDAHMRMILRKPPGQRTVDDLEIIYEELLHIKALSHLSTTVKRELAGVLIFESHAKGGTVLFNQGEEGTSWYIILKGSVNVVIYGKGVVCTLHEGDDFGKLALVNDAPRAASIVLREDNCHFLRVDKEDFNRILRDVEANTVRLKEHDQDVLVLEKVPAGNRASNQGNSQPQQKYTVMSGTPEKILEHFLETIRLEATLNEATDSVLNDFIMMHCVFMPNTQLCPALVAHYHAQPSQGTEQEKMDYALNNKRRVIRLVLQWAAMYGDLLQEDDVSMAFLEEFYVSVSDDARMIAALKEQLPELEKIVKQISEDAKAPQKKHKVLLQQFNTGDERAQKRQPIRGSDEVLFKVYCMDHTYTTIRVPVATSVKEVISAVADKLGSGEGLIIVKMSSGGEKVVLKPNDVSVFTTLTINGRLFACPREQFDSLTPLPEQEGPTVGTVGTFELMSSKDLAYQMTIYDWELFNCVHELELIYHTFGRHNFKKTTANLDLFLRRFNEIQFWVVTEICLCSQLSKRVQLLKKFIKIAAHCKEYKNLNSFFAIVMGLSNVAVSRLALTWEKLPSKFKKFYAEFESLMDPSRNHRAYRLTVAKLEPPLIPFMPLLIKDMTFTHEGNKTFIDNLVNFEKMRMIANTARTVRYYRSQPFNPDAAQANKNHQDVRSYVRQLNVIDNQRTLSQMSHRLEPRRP
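Normalized against a 6.5 mM cAMP agonist control, compounds were tested on 100 nM EPAC2 exchanging Rap1B-bound BODIPY-GDP (250 nM) for 50 uM GDP. Fluorescence drop (ex 480, em 540 nm) was tracked at room temperature over 30 min at 5-min intervals.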
Numbers without * were called inactive; ? = inconclusive; & = joins results of further samples; [ ] = remark or other dose. Potency is the fitted concentration of half-maximal effect. These rows are one share of the data, so the mix of outcomes need not match the whole.

Start of the listing, in advance (4 entries):
Molecule	EPAC2 ant val
CC(C)(CO)[C@@H](O)C(=O)NCCCO	-10%&2%
CC[C@@H](C)[C@H](N)C(=O)O	7%
C#C[C@]1(O)CC[C@H]2[C@@H]3CCC4=CC(=O)CC[C@@H]4[C@H]3CC[C@@]21CC	-14%
CN=C(N)NC(=O)Nc1c(C)cccc1C	16%

The listing, from the start:
Molecule	EPAC2 ant val
CC(C)(CO)[C@@H](O)C(=O)NCCCO	-10%&2%
CC[C@@H](C)[C@H](N)C(=O)O	7%
C#C[C@]1(O)CC[C@H]2[C@@H]3CCC4=CC(=O)CC[C@@H]4[C@H]3CC[C@@]21CC	-14%
CN=C(N)NC(=O)Nc1c(C)cccc1C	16%
CCOC(=O)Nc1ccc2c(c1)N(C(=O)CCN1CCOCC1)c1ccccc1S2	?
Cc1ccc(C(=O)C(C)CN2CCCCC2)cc1 (stereo not given)	-4%&-7%
COc1cc2[nH]c(=O)[nH]c(=O)c2cc1OC	-11%
Cc1cc(O)c2c(c1)C(=O)c1cccc(O)c1C2=O	-8%&1%
CC1(C)Oc2ccc(C#N)cc2[C@@H](N2CCCC2=O)[C@@H]1O	-13%&-29%
OCCOCCOCCO	2%
CC(C)[C@@H]1C(=O)N(S(C)(=O)=O)[C@H]2CCN(C(=O)/C=C\CN3CCCCC3)[C@@H]12	-15%
O=C(c1ccccc1)c1ccc2n1CCC2C(=O)O (stereo not given)	19%
Nc1ncnc(Nc2ccccc2)n1	-5%
COc1cc(C)nc(-n2nc(C)cc2OC)n1	-1%[56.6 µM]
CCCCN(CCCC)CC(O)c1cc(Cl)cc2c1-c1ccc(Cl)cc1/C2=C/c1ccc(Cl)cc1 (stereo not given)	29%
CC1CCc2c(N3CCC(O)CC3)c(F)cc3c(=O)c(C(=O)O)cn1c23 (stereo not given)	-10%
COc1cc(C(=O)NCCCCCC(=O)O)cc(OC)c1OC	-16%
CCCCCCCCCCOCC(O)CN (stereo not given)	15%
NC(=O)NC(=O)Cc1ccccc1	-28%
CCC(Cc1c(I)cc(I)c(N)c1I)C(=O)O (stereo not given)	?
Oc1cc2c(cc1O)C1c3ccc(O)c(O)c3OCC1(O)C2 (stereo not given)	-11%
CN1C(=O)CC(C)(c2ccccc2)C1=O (stereo not given)	25%
CC[C@]12CCCN3CCc4c(n(c5ccccc45)[C@@](O)(C(=O)OC)C1)[C@@H]32	13%
NC(=O)c1ccc([N+](=O)[O-])cc1Cl	-13%
CCCCCCCCCC(=O)O	-2%

(cont.)
Molecule	EPAC2 ant val
CCC(C)n1ncn(-c2ccc(N3CCN(c4ccc(OC[C@H]5CO[C@](Cn6cncn6)(c6ccc(Cl)cc6Cl)O5)cc4)CC3)cc2)c1=O (stereo not given in full)	-30%
Cc1ccsc1/C=C/C1=NCCCN1C	-3%
Oc1ccc([C@@H]2CNCCc3c2cc(O)c(O)c3Cl)cc1	-5%
CN(C)C(=N)N=C(N)N	-8%
CCN(CC)S(=O)(=O)c1ccc(C(=O)O)cc1	?
O=C(Nc1ccc([N+](=O)[O-])cc1)Nc1ccc([N+](=O)[O-])cc1	-12%
COc1c(O)cc2c(c1O)[C@@H]1O[C@H](CO)[C@@H](O)[C@H](O)[C@H]1OC2=O	?
CCN(CC)CCOC(=O)C(c1ccccc1)c1ccccc1	-20%
CCOC(=O)Nc1ccc(NCc2ccc(F)cc2)nc1N	?
COc1ccc(-c2oc3c(CC=C(C)C)c(O[C@H]4OC(CO)C(O)C(O)C4O)cc(O)c3c(=O)c2O[C@@H]2OC(C)C(O)C(O)C2O)cc1 (stereo not given in full)	-20%
Cc1ccc(-n2nc(C(C)(C)C)cc2NC(=O)Nc2ccc(OCCN3CCOCC3)c3ccccc23)cc1	-16%
CC(=O)O[C@@]12CO[C@@H]1C[C@H](O)[C@@]1(C)C(=O)[C@H](O)C3=C(C)[C@@H](OC(=O)[C@H](O)[C@@H](NC(=O)OC(C)(C)C)c4ccccc4)C[C@@](O)([C@@H](OC(=O)c4ccccc4)[C@H]21)C3(C)C	-27%&-37%
OCCOCCN1CCN(C(c2ccccc2)c2ccc(Cl)cc2)CC1 (stereo not given)	28%
CN(CCOc1ccc(NS(C)(=O)=O)cc1)CCc1ccc(NS(C)(=O)=O)cc1	-24%
O=C(O)[C@@H](O)[C@H](O)[C@H](O)[C@@H](O)C(=O)O (tested in a mixture with another compound)	-11%
COc1ccccc1OC(=O)Oc1ccccc1OC	-20%
CC(C)(C(=O)c1cccnc1)c1cccnc1	-13%[56.6 µM]
O=C1CCc2cc(OCCCCc3nnnn3C3CCCCC3)ccc2N1	-1%&-10%&-20%
CCCc1cc(C(N)=S)ccn1	-10%
COC(=O)Nc1nc2ccc(S(=O)c3ccccc3)cc2[nH]1 (stereo not given)	?
O=C(OC1C[C@@H]2CC3C[C@H](C1)N2CC3=O)c1c[nH]c2ccccc12 (stereo not given in full)	14%
CN(C)CCOC(=O)C(c1ccccc1)C1(O)CCCC1 (stereo not given)	1%&-8%
CCCN(CCC)C(=O)C(CCC(=O)O)NC(=O)c1ccccc1 (stereo not given)	-5%&9%&-7%
CCCC(=O)O[C@]1(C(=O)CCl)[C@H](C)C[C@@H]2[C@H]3CCC4=CC(=O)C=C[C@]4(C)[C@@]3(F)C(=O)C[C@@]21C	?
Nc1cc(=O)[nH]c(N)n1	-21%&11%&-29%

Reformatted with each value named: 2 of the compounds above
SMILES: OCCOCCOCCO
  EPAC2 ant val = 2%
SMILES: CC(C)[C@@H]1C(=O)N(S(C)(=O)=O)[C@H]2CCN(C(=O)/C=C\CN3CCCCC3)[C@@H]12
  EPAC2 ant val = -15%

3 records drawn at random from the list so far:
Molecule	EPAC2 ant val
CCCN(CCC)C(=O)C(CCC(=O)O)NC(=O)c1ccccc1 (stereo not given)	-5%&9%&-7%
CCN(CC)S(=O)(=O)c1ccc(C(=O)O)cc1	?
O=C1CCc2cc(OCCCCc3nnnn3C3CCCCC3)ccc2N1	-1%&-10%&-20%

Other compounds:
Molecule	EPAC2 ant val
CN1CCN(c2cc3c(cc2F)c(=O)c(C(=O)O)cn3-c2ccc(F)cc2)CC1	37%
COc1ccc(S(=O)(=O)Nc2nnc(CC(C)C)s2)cc1	-4%&4%
CN=C(NC#N)Nc1ccc(C2=NNC(=O)CC2C)cc1 (stereo not given)	-28%
C[C@@H]1CC(=O)NN=C1c1ccc(NN=C(C#N)C#N)cc1	8%
OCC(O)CN1CCN(c2ccccc2)CC1 (stereo not given)	12%
NCCO	-4%[239 µM]
CN1CCC(Nc2ncc3ncnc(Nc4ccc(F)c(Cl)c4)c3n2)CC1	19%
COc1ccc([C@@H]2CNC(=O)C2)cc1OC1CCCC1	-20%&-25%&-25%
C=CC(=O)Nc1cc2c(Nc3ccc(F)c(Cl)c3)ncnc2cc1OCCCN1CCOCC1	18%
COC(=O)c1ccccc1C(=O)c1ccc(OCCN2CCCCC2)cc1	-2%
C[C@@H]1C[C@H]2[C@@H]3C[C@H](F)C4=CC(=O)C(Cl)=C[C@]4(C)[C@@]3(F)[C@@H](O)C[C@]2(C)[C@@]1(O)C(=O)CO	-1%
Cc1c(C(C)C)c(=O)n(-c2ccccc2)n1C	-22%
Cc1cn([C@H]2C[C@H](O)[C@@H](CO)O2)c(=O)[nH]c1=O	-16%&-5%
Cc1nc2c([nH]1)c(=O)n(C)c(=O)n2Cc1ccco1	-2%&19%
O=C1c2ccccc2C(=O)c2c(O)c(O)cc(O)c21	-6%&23%
Cc1ccc(Nc2c(F)cccc2Cl)c(CC(=O)O)c1	?
CN(C)CCC[C@@]1(c2ccc(F)cc2)OCc2cc(C#N)ccc21	23%&-10%
CCCCOC(=O)c1ccc(N)cc1	-19%
c1ccc(CNCCNCc2ccccc2)cc1	9%
CN1CCN(CCCN2c3ccccc3Sc3ccc(S(=O)(=O)N(C)C)cc32)CC1	12%[56.6 µM]
NC(=O)c1ccc(-c2nc(-c3ccc4c(c3)OCO4)c(-c3ccccn3)[nH]2)cc1	-26%
O=C(NCCN1CCOCC1)c1ccc(Cl)cc1	9%&0%&24%
O=C(O)CCCCCCCC(=O)O	0%&-13%&-7%
Nc1ccc(S(=O)(=O)NCc2ccccc2)cc1	8%
CN1CCN(C(=O)C2CCCCC2)CC1	-3%

The list goes on:
Molecule	EPAC2 ant val
Cc1cccc(C)c1NC(=O)c1cc(S(N)(=O)=O)c(Cl)cc1O	-8%
N#C/C(=C1\SCC(c2ccccc2Cl)S1)n1ccnc1 (stereo not given)	?
CCN1CC(CCN2CCOCC2)C(c2ccccc2)(c2ccccc2)C1=O (stereo not given)	4%
Cc1oncc1C(=O)Nc1ccc(C(F)(F)F)cc1	?
CN1CCC(=C2c3ccccc3CC(=O)c3sccc32)CC1	-4%&-9%&-25%&-3%
CN1CCN(c2c(F)cc3c(=O)c(C(=O)O)cn4c3c2SCC4)CC1	-15%
COC(c1ccccc1)(c1ccccc1)[C@H](Oc1nc(C)cc(C)n1)C(=O)O	5%

By substructure: the compounds so far with a nitro group on carbon.
Molecule	EPAC2 ant val
NC(=O)c1ccc([N+](=O)[O-])cc1Cl	-13%
O=C(Nc1ccc([N+](=O)[O-])cc1)Nc1ccc([N+](=O)[O-])cc1	-12%
